Screens as filed in PubChem.
HSD17B inhib: blocks hydroxysteroid 17-beta dehydrogenase activity; actives 7.6% (n = 75,000); Potency, µM (top dose mostly 57.1 µM), for the others: at the highest dose activity change, negative = inhibition, hits mostly inhibitors; AID 893; Q99714; recombinant HSD17B10, NADH fluorescence kinetic; many of its hits are not listed in these tables; active = well fitted inhibition curve with a large enough effect; inconclusive = small, poorly fitted or top-dose-only effect; inactive = no such curve, though single readings can be large or run the other way;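 also: the protocol describes HADH2 (HSD17B10) and not the HSD17B4 of the title; nearly all actives have a fitted effect of over 70% in size; most hits overshoot -100% by far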
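Enzyme plus compound, 15 min room temperature; substrate mix added (NAD+ 1 mM, beta-hydroxybutyryl-CoA 90 uM final); plates read kinetically for NADH fluorescence. HADH2 was His-tagged, E. coli-derived, 20 nM.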
The depositor's hits bear a star; i = inactive; ? = inconclusive; [ ] = remark or other dose. % is scaled to controls: 0 for no effect and ±100 for the full control effect; potency is read from the fitted curve at half-maximal effect. A portion of the library, so the mix of outcomes need not match the whole.

SMILES | HSD17B inhib
CC(C)C(=O)N1c2ccccc2NC2=C(C(=O)CCC2)C1c1ccc(N(C)C)cc1 (stereo not drawn) | -11.0%
COc1ccc2nc(Nc3ccc4c(c3)OCO4)sc2c1 | -15.1%
O=S(=O)(c1ccc(Oc2ncnc3scc(-c4ccccc4)c23)cc1)N1CCOCC1 | -7.0%
CC1=CC(C)C2C(=O)N(CCCN(C)C)C(=O)C2C1 (stereo not drawn) | -6.4%
O=C(O)/C(=C\c1ccncc1)c1cccc2ccccc12 | 5.5%[11.4 µM]
Cc1cccc([N+](=O)[O-])c1C | -6.0%
Cc1ccnc(Nc2nc3ccccc3o2)n1 | 4.0%
CCCN(C(=O)c1cccs1)c1nnc(-c2ccncc2)s1 | i
COc1nonc1NC(=O)CSc1nc2ccccc2[nH]1 | -2.5%
CCN(CC)CCCNC(=O)c1cc(-c2cccc(Cl)c2)on1 | 3.5%
O=C(Nc1ccc(Cc2ccncc2)cc1)C1CC1 | 2.6%
Cc1nc2ncnn2c(C)c1Cc1ccc(Cl)cc1F | 3.5%
CC1(C)CC(=O)C2=C(C1)Nc1ccccc1NC2c1ccc2c(c1)OCO2 (stereo not drawn) | -1.2%
CC1=CC(C)(C)N2C(=O)C3(C(C#N)=C(N)OC4=C3C(=O)CC(C)(C)C4)c3cccc1c32 (stereo not drawn) | 9.2%
COc1cccc(C(=O)Nc2ccc(S(=O)(=O)Nc3onc(C)c3C)cc2)c1 | -6.5%
Cc1ccccc1-n1c(SCc2c(C)noc2C)nnc1-c1c[nH]c2ccccc12 | 1.8%
CN1CC(=O)N(CC(=O)NCCc2ccc(F)cc2)c2ccccc2C1=O | 4.6%
Cc1ccc(S(=O)(=O)NCCCCCC(=O)Nc2nccs2)cc1 | 12.8%
CSCCC(NC(=O)OC(C)(C)C)C(=O)NC(CC(C)C)C(N)=O (stereo not drawn) | -4.5%
CCCC12CN3CC(C)(CN(C1)C3c1ccc(OC)cc1)C2=O (stereo not drawn) | 3.8%

Given as labelled records: entries from further up
CCCC12CN3CC(C)(CN(C1)C3c1ccc(OC)cc1)C2=O (stereo not drawn)
  HSD17B inhib: 3.8%

CCN(CC)CCCNC(=O)c1cc(-c2cccc(Cl)c2)on1
  HSD17B inhib: 3.5%

O=C(O)/C(=C\c1ccncc1)c1cccc2ccccc12
  HSD17B inhib: 5.5%[11.4 µM]

Cc1ccccc1-n1c(SCc2c(C)noc2C)nnc1-c1c[nH]c2ccccc12
  HSD17B inhib: 1.8%

(cont.)
SMILES | HSD17B inhib
COc1cccc(Nc2ncc3ncc(=O)n(C4CC4)c3n2)c1 | 7.0%
COc1ccc(OCC(O)COc2ccc(OC)cc2)cc1 | -6.9%
CN(C(=O)CCN1C(=O)C(C)(C)Nc2ccccc21)c1ccccc1 | 7.6%
O=C(C1CC1)N1CCc2cc(Br)cc(S(=O)(=O)N3CCOCC3)c21 | 1.2%
O=C(c1ccco1)N1CCC[C@@]2(CCN(Cc3ccccc3)C2)C1 | 4.5%
CCCN1CCN(CCCNC(=O)Cn2ncc3c4ccccc4n(C)c3c2=O)CC1 | ?
Cc1nc2cncnc2n(-c2ccccc2)c1=O | ?
COc1ccc(OC)c(N=c2oc3c(OC)cccc3cc2C(=O)NCc2ccco2)c1 | 6.7%
Fc1cccc(Cl)c1/C=N\N=C1c2ccccc2-c2ccccc21 | -3.9%[11.4 µM]
COc1cccc(-c2cncnc2NC2CCNCC2)c1 | -6.5%
COC(=O)C1=C(C)NC(=O)CC1c1ccccc1F (stereo not drawn) | 9.5%
COC(=O)c1cccc(NC2CC(=O)N(c3ccc(OC)c(OC)c3)C2=O)c1 (stereo not drawn) | 31.6µM*
CC(C)(O)C1=NOC(c2ccccc2)C1 (stereo not drawn) | 3.3%
CC(=O)c1cccc(NC(=O)CSc2nnc(-c3ccc(S(=O)(=O)N4CCCC4)cc3)o2)c1 | 13.5%
COc1ccccc1OC(=O)c1ccc(SC)cc1OC | -6.4%
CC1CN(c2ccccc2)C(=O)CS1 (stereo not drawn) | -23.9%
O=C(CC1(O)C(=O)N(Cc2ccccc2Cl)c2ccccc21)c1ccco1 (stereo not drawn) | 25.1µM*
O=C1c2ccccc2NC(c2ccccc2)N1c1ccc(O)cc1 (stereo not drawn) | -20.5%
COc1ccccc1C(=O)NCCn1ccc2ccccc21 | -12.8%
Cc1cccc(OCCOC(=O)C2CCN(S(=O)(=O)c3cccs3)CC2)c1 | -8.4%

Of the compounds above, these contain two or more sulfur atoms.
SMILES | HSD17B inhib
O=S(=O)(c1ccc(Oc2ncnc3scc(-c4ccccc4)c23)cc1)N1CCOCC1 | -7.0%
CCCN(C(=O)c1cccs1)c1nnc(-c2ccncc2)s1 | i
Cc1ccc(S(=O)(=O)NCCCCCC(=O)Nc2nccs2)cc1 | 12.8%
CC(=O)c1cccc(NC(=O)CSc2nnc(-c3ccc(S(=O)(=O)N4CCCC4)cc3)o2)c1 | 13.5%
Cc1cccc(OCCOC(=O)C2CCN(S(=O)(=O)c3cccs3)CC2)c1 | -8.4%

Additional entries follow.
SMILES | HSD17B inhib
COc1cc2c(cc1OC)C1=C(C#N)CC/C(=N\S(=O)(=O)c3ccccc3)N1CC2 | -24.5%
CC(=O)N1CCc2cc(S(=O)(=O)CCC(=O)N3CCN(c4ccccn4)CC3)ccc21 | 1.5%
CN(C)c1nc(N)nc(CSc2nnnn2C)n1 | 8.4%
C=CCC1(O)C(=O)Nc2ccccc21 (stereo not drawn) | 8.7%
CCN1CCCC1CNC(=O)Cn1ncc2c(=O)oc3ccc(C)cc3c21 (stereo not drawn) | -1.5%
NC(=O)CCS(=O)(=O)CCN1CCCCC1 | -0.3%
CCOc1ccc(NC(=O)Cn2nnc(-c3ccccc3F)n2)cc1 | -2.9%
COCCCNc1nc(=S)[nH]c2cc(OC)c(OC)cc12 | -7.9%
Nc1nc2c(ncn2C2CC(O)C(CO)O2)c(=O)[nH]1 (stereo not drawn) | -3.9%
O=C(CSc1nc2ccccc2o1)NCC(=O)c1ccccc1 | 2.2%
CCOC(=O)C1CCN(C2CC(=O)N(c3ccc(OCC)cc3)C2=O)CC1 (stereo not drawn) | -9.6%
N#Cc1ccc(CN2CC[C@@]3(CCCN(C(=O)c4ccncc4)C3)C2)cc1 | 2.8%
CCOCCc1nnc(NC(=O)CSc2ccccc2)s1 | -7.3%
O=C(O)C1C2C=CC(C2)C1C(=O)N1CCc2ccccc21 (stereo not drawn) | -6.9%
CC(C)CSc1nc2ccccc2n1CC(N)=O | 3.1%
CC(C)c1ncc(C(O)c2cccc3ccccc23)n1C (stereo not drawn) | 7.3%
CCC1=C(OC(=O)N(CC)CC)N2C(=O)OC(=NCCc3c[nH]c4ccccc34)[C@]2(Cc2ccccc2)[C@H]2C1=CC[C@H]1C(=O)N(CC)C(=O)[C@H]12 | -4.1%
COc1cccc(C2=NOC(C(=O)NCc3ccc(F)cc3)C2)c1 (stereo not drawn) | 1.3%
CCCCCCn1c(N2CCN(c3cccc(Cl)c3)CC2)nc2c1c(=O)[nH]c(=O)n2C | -0.2%
CC1CN(C)C(C)CC1NCc1ccc2c(c1)OCO2 (stereo not drawn) | 4.8%
CC(=O)OCC(=O)c1ccc2ccn(C(C)=O)c2c1 | 25.1µM*
Cc1nc2cnc(Nc3ccccc3)nc2n(Cc2ccc(F)cc2)c1=O | 5.1%
COC(=O)[C@@H]1CCCN1C(=O)[C@@H](C)CO | -0.9%[11.4 µM]
CN(C)S(=O)(=O)c1ccc(C(=O)OCc2ccc(C#N)cc2)cc1 | -2.8%
CCOC(=O)C1CCCN(C(=O)CCC(=O)Nc2ccc3nc(N4CCOCC4)cc(C)c3c2)C1 (stereo not drawn) | 25.1µM*
CCCc1nc2oc3cc(OC)ccc3c(=O)c2c(=O)n1Cc1ccco1 | ?
CN1CCN(C(=O)c2cc3c(s2)-c2ccccc2S(=O)(=O)C3)CC1 | -8.0%
Cc1cccc(CNc2nc(-c3ccc4c(c3)OCO4)nc3ccccc23)c1 | -17.3%
O=C(CSc1nnnn1-c1ccc(Cl)cc1)NC(=O)Nc1ccc2c(c1)OCCO2 | -2.8%
COc1cccc(C2NC(=O)NC(C)=C2C(=O)Nc2ccccc2C)c1 (stereo not drawn) | 1.3%
CCOC(=O)N1CCN(C(=O)Nc2sc3nc4n(c(=O)c3c2C)CCC(C)CC4)CC1 (stereo not drawn) | -14.2%
O=C(CSc1nnc(CN2CCOCC2)n1-c1ccccc1)N1CCc2ccccc21 | 7.6%
OC1CCC2Cc3ccccc3N=C12 (stereo not drawn) | -12.6%
CC(=O)c1cccc(NC(=O)N2CCCC2C(=O)NC2CCCCC2)c1 (stereo not drawn) | -3.4%
CCOc1ccc(-c2nnn(CC(=O)NCc3ccc(OC)cc3)n2)cc1OCC | 5.1%
CC(=O)Nc1cc2ccccc2oc1=O | 12.6µM*
CCn1cc(Br)c(-c2nc3ccccc3c(=O)n2N)n1 | 2.3%
CC1(C)CC(=O)c2cc(C(=O)Nn3cnnc3)c(=O)n(-c3ccccc3)c2C1 | -17.2%
O=C(NCCc1ccccc1)c1ccc2c(c1)N(Cc1ccccc1)C(=O)CS2=O (stereo not drawn) | ?
COc1ccc(-c2cc(C(F)(F)F)nc(N3CCOCC3)n2)cc1OC | ?
O=C(OCC(F)(F)C(F)F)c1ccccc1C(=O)Oc1ccc(F)cc1F | -4.6%
O=C(O)CCc1nnc2n(Cc3ccc(F)cc3)c(=O)c3ccccc3n12 | 3.9%
Cc1ccc(Nc2nc(N)nc(CN3CCN(C)CC3)n2)cc1 | 1.0%
CCC1(C)Cc2c(sc3c2c(=O)n(C)c2nnc(SCC(=O)c4ccccc4)n32)CO1 (stereo not drawn) | ?
C[C@@](N)(C(=O)O)c1cccc(CC(=O)O)c1 | 0.3%
O=C(c1cccs1)N(Cc1ccco1)Cc1cc2ccccc2[nH]c1=O | ?
CCC12CN(C(=O)c3ccc(OC)cc3)CC(CC)(CN(C(=O)c3ccc(OC)cc3)C1)C2=O | -0.2%
CC1Cc2cc(/C(O)=C3/C(=O)C(=O)N(CCCN(C)C)C3c3ccncc3)ccc2O1 (stereo not drawn) | 5.4%
CS(=O)(=O)N1CCCC(C(=O)NCCCN2CCN(Cc3ccccc3)CC2)C1 (stereo not drawn) | 2.0%
O=C(O)c1ccc(N2CCCCCC2)c(N2C(=O)c3ccccc3C2=O)c1 | 7.6%
Cc1cc(C)c(S(=O)(=O)Nc2ccc(OCC(=O)O)cc2)c(C)c1 | 0.2%
COc1ccc(-n2nnnc2SCC(=O)N2CCOCC2)cc1 | 3.4%
COc1c(-c2ccc(O)c(O)c2)oc2cc(O)cc(O)c2c1=O | -16.0%
CC(C)NC(=O)c1ccccc1NC(=O)CN(c1ccc2c(c1)OCO2)S(C)(=O)=O | -0.5%
CCCN1C(=O)NC2(O)C(=O)c3ccccc3C12O (stereo not drawn) | 4.6%
COC(=O)[C@H](Cc1ccccc1)NC(=O)[C@@H](N)CC(=O)O | -0.4%
c1ccn2c(SCc3ccc4c(c3)OCCO4)nnc2c1 | 2.2%
CCc1ccc(OC)c(S(=O)(=O)Nc2ccccc2C)c1 | 2.7%
NCCNS(=O)(=O)c1ccc(N)cc1 | 4.5%[11.4 µM]
CCOC(=O)CSc1nnc(-c2ccncc2)o1 | 1.2%

A draw from above in order of number of heavy atoms, ascending:
SMILES | HSD17B inhib
O=C(O)/C(=C\c1ccncc1)c1cccc2ccccc12 | 5.5%[11.4 µM]
COc1ccccc1C(=O)NCCn1ccc2ccccc21 | -12.8%
O=C(CC1(O)C(=O)N(Cc2ccccc2Cl)c2ccccc21)c1ccco1 (stereo not drawn) | 25.1µM*

Next section
SMILES | HSD17B inhib
CCN(CC)S(=O)(=O)c1ccc(S(=O)(=O)N2CCN(CCC#N)CC2)cc1 | 7.3%
Cc1ccc(C(=O)CC2(O)C(=O)N(Cc3ccc4c(c3)OCO4)c3ccccc32)cc1 (stereo not drawn) | -22.6%
Cc1occc1-c1nnc(SCC(=O)c2ccc(F)cc2)n1Cc1ccco1 | 1.2%
Cc1ccc(N(CC(=O)N2CCc3ccccc32)C2=NC(=O)CS2)cc1 | 6.2%
O=C(CSc1ncc(-c2ccccc2)n1-c1ccccc1)NCc1ccco1 | -25.5%
Cc1cc(C)nc(NC(=O)CSc2ccccn2)n1 | 5.3%
COCc1cc(C2C(C(=O)c3ccco3)=C(O)C(=O)N2CCOCCO)ccc1O (stereo not drawn) | 6.8%
CCOc1ccc(NC2c3ccccc3C(=O)N2Cc2ccco2)cc1 (stereo not drawn) | -6.1%
O=C1OCc2cc(NC(=O)C3COc4ccccc4O3)ccc21 (stereo not drawn) | 0.5%
CC(=O)NCc1cccc(CNC(C)=O)n1 | 7.5%
CCn1c(C2CC(=O)N(Cc3ccccc3)C2)nc2ccccc21 (stereo not drawn) | -7.2%
O=C(COC(=O)C(O)c1ccccc1)NC12CC3CC(CC(C3)C1)C2 (stereo not drawn) | 7.9%
O=C(/C=C(\O)c1ccccc1)c1ccccc1O | 1.9%
CCc1ccc(CNC(=O)CN2C(=O)COc3ccccc32)cc1 | 6.4%
Nc1nc(CSc2n[nH]c(-c3ccccc3)n2)nc(Nc2ccccc2)n1 | -13.8%
NC1CCCCC1N=Cc1c(O)n(CCc2ccc(F)cc2)c(=O)[nH]c1=O (stereo not drawn) | -7.0%
Cc1nn(-c2ccccc2)c2nc(-c3ccncc3)cc(C(=O)NCc3ccco3)c12 | ?
C[N+](C)(C)[C@@H](C1=CCCC1=O)c1ccccc1 | -8.0%[11.4 µM]
Cc1cc(CNC(=O)[C@@H]2C[C@H]2[C@@H](NP(=O)(c2ccccc2)c2ccccc2)c2ccccc2)nn1C | 9.1%
O=C(Nc1ncc(Cc2ccccc2)s1)c1cccs1 | -3.7%
O=C(C1CCN(C2CC(=O)N(c3cccc(Cl)c3)C2=O)CC1)N1CCCCCC1 (stereo not drawn) | -9.5%
